Source: PubChem BioAssay (Southern Research Institute)
Mtb H37Rv: Confirmatory growth inhibition assay against Mycobacterium tuberculosis H37Rv, potency (AID 1949). most inactive calls were filed without a number and no value below 0 was filed. inhibition, % at 10 µg/mL, or IC50 in µg/mL where a hit was titrated. 100,000 compounds, 1.6% hits;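 active = confirmed in a dose series; inconclusive = about 50% or more but not retested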;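 also: bacteria grown 7 days with compound before Alamar blue readout; 0% = untreated bacteria and 100% = reference antibiotic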
* marks the source's active call; other numbers are inactive results; i = inactive; ? = inconclusive. A portion of the library; the hit share may differ from the screen's.

# | mol | Mtb H37Rv
1 | Cc1ccc(-c2csc(CC(=O)Nc3ccccc3)n2)cc1 | i
2 | C=CCn1c(SCC(=O)N2CCN(c3ccccc3)CC2)nnc1-c1ccccc1O | i
3 | C#CCN(CC(=O)C(C)(C)C)C(C)(C)C | 3%
4 | COC(=O)C1=CN(C(C)C)C=C(C(=O)OC)C1c1cc(Br)ccc1OC | i
5 | CCC(C)NC(=O)c1ccccc1NC(=O)c1ccc(N(C)S(=O)(=O)c2ccc(C)cc2)cc1 (stereo not drawn) | 5%
6 | Brc1cccc(OCCN2CCOCC2)c1 | i
7 | O=C(CC1Sc2ccc(C(F)(F)F)cc2NC1=O)Nc1ccccc1SC(F)(F)F (stereo not drawn) | i
8 | CCOC(=O)c1c(-c2ccc(Cl)cc2)csc1NC(=O)COc1ccc(F)cc1 | i
9 | COc1ccccc1OCc1ccc(C(=O)n2nc(C)c(I)c2C)o1 | i
10 | COc1cccc(C=O)c1OCc1c(F)cccc1Cl | 18%
11 | Oc1ccc(-c2csc(Nc3ccc(Cl)cc3)n2)cc1O | i
12 | Cc1cc(C(=O)Nc2ccccc2C(=O)O)ccc1NC(=O)COc1ccc(C(C)C)cc1 | i
13 | CCC(=O)Nc1cccc(NC(=O)c2ccc(-c3ccc(Br)cc3)o2)c1 | 0%
14 | Cc1nc2nc(Cc3ccccc3)[nH]n2c(=O)c1Cl | i
15 | COC(=O)c1ccc(C2C3=C(CC(C)(C)CC3=O)Nc3ncnn32)cc1 (stereo not drawn) | i
16 | CCOc1ccc(NC(=O)c2cc3ccccc3o2)cc1OCC | i
17 | CCN(CC)CCCC(C)Nc1ncnc(N)c1[N+](=O)[O-] (stereo not drawn) | i
18 | COc1ccc(C2CC(c3ccc(F)cc3)=NN2c2ccc(Cl)c(Cl)c2)cc1 (stereo not drawn) | 31%
19 | OCCN(Cc1ccccc1)CC(O)COc1c(F)cc(Br)cc1F (stereo not drawn) | 4%
20 | O=C(Nc1ccccc1[N+](=O)[O-])c1cccc(Cl)c1Cl | i
21 | O=C(N1CCN(C/C=C/c2ccccc2)CC1)C(F)(F)F | 3%
22 | CC(=O)c1c(C)nc(-c2ccc(Cl)cc2Cl)n1O | i
23 | CCCSc1nnc(NC(=O)c2ccccc2F)s1 | i
24 | O=C(COc1ccc(C(=O)NCc2ccccc2)cc1)OC1CCCCC1 | 0.73µg/mL*
25 | Cc1cccc(Cn2c(NCc3ccccc3)nc3c2c(=O)n(C)c(=O)n3C)c1 | 1%
26 | CC(C)OCCCNC(=O)CCCOc1ccc(Cl)cc1Cl | i
27 | Cn1c(=O)c2c(ncn2CC(=O)N2CCN(c3ccc(F)cc3)CC2)n(C)c1=O | 1%
28 | O=C(Nc1cccc(Br)c1)c1c(F)c(F)c(F)c(F)c1F | 2%
29 | COc1ccc(NC(=O)Cc2c(F)cccc2Cl)c([N+](=O)[O-])c1 | i
30 | CCOc1cc(/C=N/NS(=O)(=O)c2ccc(OC)cc2)ccc1OCCN1CCOCC1 | i
31 | NS(=O)(=O)c1ccc(NC(=S)N2CCN(c3ccccn3)CC2)cc1 | i
32 | CCC(C(=O)Nc1nnc(C(F)(F)F)s1)c1ccccc1 (stereo not drawn) | i
33 | CCn1c(CNC(=O)c2ccc(OC)cc2)nnc1SCC(=O)Nc1ccccc1F | i
34 | CC(=O)Oc1ccc(C(=O)Nc2nnc(CC(C)(C)C)s2)cc1 | i
35 | Cc1cccc(NC(=O)CN(c2ccccc2F)S(C)(=O)=O)c1 | i
36 | CN1C(=O)c2ccc(NC(=O)c3c(F)c(F)c(F)c(F)c3F)cc2C1=O | i
37 | COc1cccc(C=O)c1OC/C=C/c1ccccc1 | 14%
38 | O=C(Nc1cccc(NC(=O)C2CCCCC2)c1)C1CCCCC1 | i
39 | COC(=O)c1sccc1NC(=O)Cc1ccc(OC)cc1 | i
40 | COc1ccc(OC(=O)COc2ccc(Cl)c(C)c2)cc1 | 3%
41 | CCCc1ccccc1OC1=NS(=O)(=O)c2ccccc21 | i
42 | COc1ccc(-c2csc(-c3ccc(OC)c(OC)c3)n2)cc1C | <0.1µg/mL*
43 | CN(Cc1ccccc1)C(=O)C12CCC(C)(c3nc4ccccc4nc31)C2(C)C (stereo not drawn) | 25%
44 | COc1ccc(C)cc1NC(=O)CSc1nnc(-c2ccc(C)cc2)n1C | i
45 | COc1ccc(/C(N)=N/OC(=O)Cc2ccc(OC)c(OC)c2)cc1 | i
46 | CCCOc1ccc(C2C3=C(CC(C)(C)CC3=O)N(CC(=O)O)C3=C2C(=O)CC(C)(C)C3)cc1 | i
47 | N#CC1=C(SCC(=O)Nc2ccc(F)cc2)NC(=O)CC1c1ccc(OCc2ccccc2)cc1 (stereo not drawn) | i
48 | c1cc2c(cc1OCCCCNC1CCCC1)CCC2 | i
49 | CN1CCN(C(=O)c2cnn(-c3ccccc3)c2NC(=O)c2ccc(Br)cc2)CC1 | i
50 | COc1ccc(CCNC(=O)c2ccccc2Sc2ccccc2C#N)cc1OC | 3%
51 | CCOC(=O)c1sc(NC(=S)NC(=O)c2ccccc2I)nc1C | i
52 | CCOc1ccc(S(=O)(=O)Nc2cccc(C(C)=O)c2)cc1 | i
53 | CCCOc1cccc(C(=O)Nc2cccc(C)c2C)c1 | i
54 | CCC(Oc1ccccc1)C(=O)N1CCN(c2cccc(C)c2C)CC1 (stereo not drawn) | 1%
55 | COc1cc(-c2nnc(SCC(=O)c3ccc(Cl)cc3)n2C)cc(OC)c1OC | i
56 | COC(=O)C1=CN(c2ccc(F)cc2)C=C(C(=O)OC)C1c1ccc(O)c(OC)c1 | i
57 | CCNS(=O)(=O)c1ccc(F)c(C(=O)O)c1 | i
58 | CC(C)CC(=O)N1CCN(C(=O)c2ccc([N+](=O)[O-])cc2)CC1 | i
59 | COC(=O)C1=C(C)NC(=O)NC1c1cc(Cl)c(OCc2ccccc2)c(OC)c1 (stereo not drawn) | i
60 | CC(C)c1ccc(C(=O)N2CCN(Cc3ccc4c(c3)OCO4)CC2)cc1 | i

Continued, starting with the last 4 of the part before.
# | mol | Mtb H37Rv
57 | CCNS(=O)(=O)c1ccc(F)c(C(=O)O)c1 | i
58 | CC(C)CC(=O)N1CCN(C(=O)c2ccc([N+](=O)[O-])cc2)CC1 | i
59 | COC(=O)C1=C(C)NC(=O)NC1c1cc(Cl)c(OCc2ccccc2)c(OC)c1 (stereo not drawn) | i
60 | CC(C)c1ccc(C(=O)N2CCN(Cc3ccc4c(c3)OCO4)CC2)cc1 | i
61 | Cc1cn(C(=O)CSc2nc(C(F)(F)F)cc(-c3ccccc3)c2C#N)c(C)n1 | i
62 | Cc1nc2scc(-c3cccs3)c2c(=O)n1N | 12%
63 | C=CCn1c(SCC(=O)Nc2cc(C(F)(F)F)ccc2Cl)nnc1-c1cc2cccc(OC)c2o1 | i
64 | Cc1ccc(C(C)NC(=O)c2cnccn2)cc1C (stereo not drawn) | i
65 | CC(NC(=O)C(c1ccccc1)c1ccccc1)c1ccc(Br)cc1 (stereo not drawn) | i
66 | CC(NC(=O)NNC(=O)c1ccncc1)(C(F)(F)F)C(F)(F)F | 0.18µg/mL*
67 | COc1ccccc1OCCCC(=O)Nc1cc(Cl)cc(Cl)c1 | i
68 | CC(=O)CSc1ncnc2sc3c(c12)CCC(C)C3 (stereo not drawn) | i
69 | COc1ccc(-c2cc(C(=O)NCC(C)C)c3ccccc3n2)cc1OC | 3%
70 | O=C1NC(=O)C2C1C(c1ccccc1)N1C3C(=O)NC(=O)C3C(c3ccccc3)N21 (stereo not drawn) | i
71 | Cc1ccc(N2C(=O)c3cccc4c(N5CCN(C)CC5)ccc(c34)C2=O)c2cccnc12 | 49µg/mL*
72 | Clc1ccc(NCc2nc3ccccc3n2Cc2ccccc2)cc1 | 9%
73 | Cc1ccc(O)c(NC(=O)c2cccs2)c1 | 3%
74 | COc1cccc(C(=O)N2CCC(C)CC2)c1OC | i
75 | O=C(Nc1cc(Cl)ccc1C(=O)O)c1ccc2c(c1)C(=O)N(Cc1cccnc1)C2=O | i
76 | Cc1ccc(S(=O)(=O)n2cccn2)cc1 | 3%
77 | CC(C)COC(=O)Nc1nnc(COc2ccc([N+](=O)[O-])cc2)s1 | i
78 | CC(C)(C)OC(=O)CSc1nc2c(cc1C#N)CCCCCC2 | 3%
79 | CCc1cccc(CC)c1NC(=O)COc1ccc(C)c(C)c1 | i
80 | O=C(Cc1ccc(Cl)cc1)Nc1ccc2c(c1)Cc1ccccc1-2 | i
81 | O=C(c1ccco1)N1CCN(C2CC(=O)N(c3ccc(F)cc3)C2=O)CC1 (stereo not drawn) | i
82 | CC(Oc1ccc(Cl)cc1Cl)C(=O)Nc1cccc(C(=O)Nc2nccs2)c1 (stereo not drawn) | 4%
83 | Fc1ccc(CN2CCN(Cc3cccc(Oc4ccccc4)c3)CC2)cc1 | i
84 | Cc1ccccc1C(=O)N1CCN(c2ccc(NC(=O)c3cccs3)cc2)CC1 | i
85 | COc1cc(Br)cc2cc(C(=O)Nc3ccccc3C(F)(F)F)c(=O)oc12 | i
86 | CCCCC(=O)NC(c1ccccc1)c1ccccc1 | i
87 | Cc1cc(=O)n2[nH]c(NCc3ccccc3)nc2n1 | i
88 | Cn1nnnc1SCc1ccc(Cl)cc1Cl | i
89 | Clc1ccc(C2=CC(c3cccs3)n3nnnc3N2)cc1 (stereo not drawn) | i
90 | CCc1cccc(CC)c1NC(=O)CSc1nnc(-c2ccc(NC(=O)c3ccccc3Cl)cc2)n1C | i
91 | O=C(CC12CC3CC(CC(C3)C1)C2)NC(=S)Nc1ccc2c3c(cccc13)CC2 | 1%
92 | O=C(Cn1c(=O)oc2ccccc21)Nc1cccc(Cl)c1 | i
93 | CCn1c(=O)c([N+](=O)[O-])c(Nc2ccc(NC(C)=O)cc2)c2ccccc21 | i
94 | Cc1cccc(NC(=S)NNC(=O)Cc2ccccc2)c1 | i
95 | Cc1ccc2nc(-c3cccc(N4C(=O)c5cccc6c([N+](=O)[O-])ccc(c56)C4=O)c3)oc(=O)c2c1 | i
96 | O=C(Nc1ccc(-c2nc3ncccc3o2)cc1)c1ccccc1Cl | 5%
97 | COc1ccc(NC(=O)CN(Cc2ccccc2)S(C)(=O)=O)c(OC)c1 | i
98 | Cc1ccc(C)c(NC(=O)c2cc(I)ccc2Cl)c1 | i
99 | COc1ccccc1N1CCN(C2CC(=O)N(c3ccc(C(C)C)cc3)C2=O)CC1 (stereo not drawn) | i
100 | CCNC(=S)Nc1cccc(C(=O)O)c1 | i

An excerpt from further up, for reference:
# | mol | Mtb H37Rv
99 | COc1ccccc1N1CCN(C2CC(=O)N(c3ccc(C(C)C)cc3)C2=O)CC1 (stereo not drawn) | i
100 | CCNC(=S)Nc1cccc(C(=O)O)c1 | i

Remaining list, next part:
# | mol | Mtb H37Rv
101 | CCc1cccc(CC)c1NC(=O)C1CN(S(=O)(=O)c2ccccc2)CCN1S(=O)(=O)c1ccccc1 (stereo not drawn) | 0%
102 | COc1c(Cl)ccc(Cl)c1C(=O)NCCc1ccccc1 | ?
103 | O=C(CCc1nc2ccccc2[nH]c1=O)OCc1ccccc1F | i
104 | COC(=O)CCC(=O)c1cc2ccccc2o1 | i
105 | CC(C)c1ccc(CSc2nc3ccccc3[nH]2)cc1 | i
106 | O=c1oc2cc(Oc3ccc([N+](=O)[O-])cc3C(F)(F)F)ccc2c2c1CCC2 | i
107 | O=C(NCc1ccc(F)cc1)C(=O)NCC1CCCO1 (stereo not drawn) | i
108 | COC(=O)c1ccccc1NC(=S)NC(=O)c1ccc(Br)o1 | i
109 | COc1ccccc1NC(=O)C12CCC(C)(C(=O)C1)C2(C)C (stereo not drawn) | i
110 | Cc1ccc(NC(=O)c2cc(NC(=O)c3ccco3)ccc2N2CCCCC2)cc1 | i
111 | C=CCNS(=O)(=O)c1c(C)cc(C)cc1C | 5%
112 | O=C(CCN1C(=O)C2C3c4ccccc4C(c4ccccc43)C2C1=O)Oc1ccc2ccccc2c1 (stereo not drawn) | i
113 | Nc1cccc(NC(=O)c2cc(F)c(F)cc2Cl)c1 | 0%
114 | Fc1ccc(Cn2cc(C(=S)N3CCCC3)c3ccccc32)cc1 | 3%
115 | CC(C)NC(=O)c1ccccc1NC(=O)c1ccc(N(Cc2ccccc2Cl)S(C)(=O)=O)cc1 | i
116 | CNC(=S)N1CCN(C/C=C/c2ccccc2)CC1 | 1%
117 | COc1ccc(-c2nnc(-c3ccc(OC)cc3)o2)cc1 | i
118 | Cc1ccc(Cl)c(NC(=O)NCCN2CCN(c3ccccc3[N+](=O)[O-])CC2)c1 | ?
119 | O=C(COc1ccc(Cl)cc1)Nc1cc(C(F)(F)F)ccc1N1CCOCC1 | i
120 | Cc1cc(C)n2c(SCc3ccc(C(=O)c4ccccc4)cc3)nnc2n1 | i

Taken from above:
entry 116 @ Mtb H37Rv = 1%
entry 114 @ Mtb H37Rv = 3%

New compounds follow
# | mol | Mtb H37Rv
121 | Nc1ncnc(Nc2ccc(Oc3ccccc3)cc2)c1[N+](=O)[O-] | i
122 | CCOC(=O)c1ccc(NS(=O)(=O)N2CCCCCC2)cc1 | 2%
123 | Cc1ccc(C)c(NC(=S)NCc2cccs2)c1 | 10%
124 | CCn1c(CNC(=O)Cc2ccc(OC)cc2)nnc1SCC(=O)Nc1nc(C)cs1 | 2%
125 | Fc1cccc(-c2nn3c(-c4ccccc4Cl)nnc3s2)c1 | 16%
126 | CCCCOc1ccc(NC(=O)c2ccncc2)cc1 | i
127 | COc1ccc(NC(=O)CCCCc2cccs2)cc1 | 18%
128 | CCn1ncc(C2=NOC(C(=O)Nc3ccc(Cl)c(Cl)c3)C2)c1C (stereo not drawn) | ?
129 | CCCC(=O)c1ccc(N2CCN(S(=O)(=O)c3ccccc3)CC2)c(F)c1 | i
130 | COc1ccc2oc(-c3cccc(NC(=O)c4ccc(C)c(Cl)c4)c3)nc2c1 | 1%
131 | O=c1c2cc(I)ccc2nc(/C=C/c2cccnc2)n1CCc1ccccc1 | 31µg/mL*
132 | COc1ccc(-c2nc3ccccc3s2)cc1Br | i
133 | Cc1ccc(S(=O)(=O)N(CC(=O)N(C)C)c2ccc(Cl)c(C(F)(F)F)c2)cc1 | i
134 | COc1cccc(OCCCOc2ccc(Cl)cc2C)c1 | 1%
